# ugtP null kill – growth inhibition of S. aureus ugtP deletion strain. S. aureus RN4220 ugtP deletion, OD600 growth, 16 h; some inactives read as strong as hits. growth inhibition, % (concentration not given with the values). actives 0.54% (n = 330,000). AID 1259309;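 active = z-score under -3 and OD600 up to 0.15 on both plates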;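 also: plate controls were untreated wells for no effect and antibiotic for full effect; wells of about 80 µL received 100 nL stock; the first replicate is given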
# Bead autofluor – counter-screen for toxin protease inhibitors: compound fluorescence; compound autofluorescence counterscreen, microsphere flow cytometry; active compounds read high; actives 3.1% (n = 360,000); fluorescence intensity (concentration not given with the values);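 active = at least 3 SD above the mean of all compounds, about 16000 in these data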;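 also: 100 nL of 1 mM stock went into each well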
# Mtb hypoxia rep – Mtb hypoxia fluorescent reporter inhibition. M. tuberculosis hypoxia-regulated fluorescent reporter, fluorescence. fluorescence inhibition, % (no concentration beside the values). actives 0.1% (n = 300,000). AID 1159583;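 active = 35 to 45% if threefold the growth effect, above 45% if 1.5-fold the growth effect; inactive = the rest, general growth blockers included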;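 also: wells of about 50 µL received 100 nL stock; 0% = vehicle wells and 100% = reference inhibitor wells; whole bacteria with a GFP reporter of the hypoxia response; strong numbers were not always called active; many hits fall short of the cut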
# RN4220 kill – kills Staphylococcus aureus RN4220. S. aureus RN4220 growth, OD600, 16 h. inhibition, % (concentration not given with the values). actives 0.33% (n = 330,000). AID 1259311;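 active = z-score of -3 or lower and OD600 up to 0.18 on both plates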;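 also: plate controls were untreated cells for no effect and reference antibiotic for full effect; stock transfer was 100 nL into about 80 µL; one replicate is shown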
# BJeLR viability – BJeLR cell viability loss; actives 0.17% (n = 300,000); inhibition, % (test concentration not listed); AID 1554; BJeLR (HRASV12) viability, CellTiter-Glo ATP luminescence, 48 h; reference of the scale not given here;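 active = replicate mean above 50%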;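 also: 50 nL library stock added to about 25 µL; numbers are from one replicate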
# PrP UTR inh – suppresses PrP 5' UTR mRNA reporter expression; cell-based PrP 5' UTR mRNA reporter, plate reader; inhibition, % (concentration not given with the values); actives 0.35% (n = 340,000);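 active = every replicate at 50% or more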;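 also: 0 = median of the neutral control wells; tested in H4 reporter cells; numbers are from one replicate; inactives centre near -14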
# Mtb hypoxia rep growth – recorded beside Mtb hypoxia rep, whose call it bears; growth inhibition, %; measured here: M. tuberculosis growth (absorbance);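 0% = vehicle and 100% = reference antibiotic; read after six days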
# * = called active by the depositor; / = no result given; & = joins results of further samples.
SMILES,ugtP null kill,Bead autofluor,Mtb hypoxia rep,Mtb hypoxia rep growth,RN4220 kill,BJeLR viability,PrP UTR inh
CCC(=O)N1CCc2cc(Br)cc(S(=O)(=O)N3CCCC(C(=O)O)C3)c21 (configuration not stated),3,5879,3,0,6.5,7,-14
O=C(/C=C/c1ccco1)Nc1ccc(Cl)c(S(=O)(=O)N2CCOCC2)c1,-9,4502,11,-2,-7.2,-24,-15
COCCCNC(=O)c1c(-c2ccccc2)noc1C,11,2830,9,9,3.1,4,-15
Cc1nn(CC(=O)NC2(C#N)CCCCC2)c(C)c1[N+](=O)[O-],10,3714,13,2,3.1,/,-38
O=c1[nH][nH]c(-c2ccccc2)c1C=Nc1ccc(F)cc1F,-5,2040,-3,5,-5.2,7,-21
COc1ccc(S(=O)(=O)Nc2c(C(=O)O)[nH]c3ccccc23)c(OC)c1,-1,5969,18,4,6.3,8,-27
CC(C)(C)c1ccc(C(=O)Nc2cccc(-n3cnnn3)c2)cc1,0,5728,11,8,3.3,12,-44
CCCCN(C(=S)Nc1ccc(F)cc1)c1c(N)n(CCC)c(=O)[nH]c1=O,3,3924,4,0,-2.8,1,-27
Cc1cc(C)c(S(=O)(=O)N2CCN(S(=O)(=O)N3CCC(C)CC3)CC2)c(C)c1,7,3994,7,0,-1.3,-10,-2
CC(OC(=O)c1nc(Cl)ccc1Cl)C(=O)Nc1ccc2c(c1)OCCO2 (configuration not stated),5,6284,10,1,1.9,-4,-18
Cc1ccc(C(=O)Nc2ccc(C(=O)O)cc2NC(=O)c2ccc(C)cc2)cc1,6,3641,12,13,0.9,1,-12
CCCCN(C(=O)c1ccc(C)c(S(=O)(=O)N2CCOCC2)c1)c1c(N)n(CCCC)c(=O)[nH]c1=O,/,6610,/,/,/,19,-6
COc1cccc(C(=O)CN(C(=O)c2ccc(Cl)c(Cl)c2)N2C(=O)C3CCCCC3C2=O)c1 (configuration not stated),3,17192*,7,-2,-1.1,3,-15
O=C(c1ccc(-n2cnnn2)cc1)N1CCCCC1,6,3419,/,/,3.3,-3,-3
COc1ccccc1NC(=O)Cn1c(=O)sc2ccccc21,-4,3047,5,4,-11,2,-30
Cc1cc(C)c2c(n1)sc1c(=O)n(Cc3ccc(F)cc3)cnc12,1,4798,7,5,3.7,-7,-17
CCN(CC)c1ccc(C=Nc2ccc(C)cc2)c(O)c1,7,4258,/,/,4.0,7,-14
Cc1c(Cl)cnc(NC(=O)COC(=O)c2cccs2)c1Cl,-3,5642,-13,4,3.7,/,4
CC(=O)Nc1sc(N/N=C/c2ccc(O)cc2)nc1-c1ccc(C)cc1,/,3474,/,/,/,-14,-7
CCSc1nc(O)c(Cc2ccccc2)c(=O)[nH]1,5,9119,11,13,3.5,2,-22
S=C(NCc1ccccc1)NNc1nc2ccccc2[nH]1,-8,4455,-5,-2,-2.0,4,-17
CC(=O)Nc1cc([As](=O)(O)O)ccc1O,-1,5352,13,6,5.4,14,-13
Cc1ccc(S(=O)(=O)N/N=C\c2cccnc2)cc1,/,12102,/,/,/,11,-23
Cc1ccc(C)c(N2CCN(C(=O)c3ccc(N4CCOCC4)c([N+](=O)[O-])c3)CC2)c1,-3,3824,-3,-3,0.5,-9,-18
O=C1CCc2cc(S(=O)(=O)NCc3ccc(F)cc3)cc3c2N1CCC3,13,4144,7,6,11,4,-18
COC(=O)C1=C(C)N(c2cc(C)cc(C)c2)/C(=C/c2ccc(O)cc2)C1=O,60,2620,1,5,89*,-8,-16
O=C(Nc1ccccc1)Nc1csc2ccccc12,-13,6183,6,11,-7.8,15,/
CCN(CC)c1ccc(NC(=O)COC(=O)/C=C/c2nc3ccccc3s2)cc1,-1,1802,11,6,4.9,-15,-6
CN(C)C=C1C(=O)c2ccccc2C1=O,-2,2483,/,/,-0.3,3,-12
CCCSc1nnc2nc(C)cc(C)n12,3,5838,/,/,1.5,7,-19

# Entries of single compounds, looked up by structure.
# CC(C)(C)c1ccc(C(=O)Nc2cccc(-n3cnnn3)c2)cc1 reads ugtP null kill = 0; Bead autofluor = 5728; Mtb hypoxia rep = 11; Mtb hypoxia rep growth = 8; RN4220 kill = 3.3; BJeLR viability = 12; PrP UTR inh = -44
# CCC(=O)N1CCc2cc(Br)cc(S(=O)(=O)N3CCCC(C(=O)O)C3)c21 (configuration not stated) reads ugtP null kill = 3; Bead autofluor = 5879; Mtb hypoxia rep = 3; Mtb hypoxia rep growth = 0; RN4220 kill = 6.5; BJeLR viability = 7; PrP UTR inh = -14
# CC(=O)Nc1cc([As](=O)(O)O)ccc1O reads ugtP null kill = -1; Bead autofluor = 5352; Mtb hypoxia rep = 13; Mtb hypoxia rep growth = 6; RN4220 kill = 5.4; BJeLR viability = 14; PrP UTR inh = -13

# The results go on:
SMILES,ugtP null kill,Bead autofluor,Mtb hypoxia rep,Mtb hypoxia rep growth,RN4220 kill,BJeLR viability,PrP UTR inh
CC(NC(=O)CN(C)S(=O)(=O)c1ccc(F)cc1)C1CC2CCC1C2 (configuration not stated),5,3358,4,1,-0.7,/,-15
CN(C)C(CNc1ccc(S(C)(=O)=O)cc1[N+](=O)[O-])c1ccccc1 (configuration not stated),5,6131,-5,-7,5.5,4,8
O=C(C1CCN(S(=O)(=O)c2ccc(F)cc2)CC1)N1CC=C(c2ccccc2)CC1,-2,17943*,-3,1,1.3,7,-23
CN(C)CC(CCC(CN(C)C)C(=O)c1ccccc1)C(=O)c1ccccc1 (configuration not stated),18,3399,-4,-1,5.2,46,-38
COc1ccc(CC(=O)Nc2sc(Cc3ccccc3)c(C)c2C(N)=O)cc1,-7,22183*,-3,7,1.4,-10,-7
CCO[C@H]1OC(C(=O)N2CCCCCCC2)=C[C@@H](C)[C@@H]1CCCO,/,3431,/,/,/,-1,-7
Cc1ccc(S(=O)(=O)N2CCCCC2)cc1NC(=O)COC(=O)C1CC2C=CC1C2 (configuration not stated),6,11226,7,-4,3.5,-2,-13
Cc1cccc(C)c1NC(=O)CC(NCc1ccco1)C(=O)O (configuration not stated),9,9520,11,7,6.1,-10,-8
CCN(CC)C(=O)N1CCc2ccccc2C1CN1C(=O)c2ccccc2C1=O (configuration not stated),4,2365,9,6,6.1,-7,-35
Cc1ccc(S(=O)(=O)CCC(=O)N(CCCN2CCOCC2)c2nc3ccccc3s2)cc1,-4,6387,0,3,3.5,11,-19
CCCc1cc(C(=O)Nc2ccc(C#N)cc2)no1,8,5410,14,-1,6.0,-4,-29
COc1ccc(C(=O)NNC(=O)CN2CCN(c3nc(-c4ccccc4)cs3)CC2)cc1,7,2620,5,0,1.9,/,10
CCOC(=O)C1=C(C)NC(=O)NC1c1ccccc1 (configuration not stated),-7,3564,9,5,2.2,-3,-17
CCN(CC)S(=O)(=O)c1cc(NC(=O)C(C)N2CC=C(c3ccccc3)CC2)ccc1C (configuration not stated),-9,2663,-13,1,-6.5,-1,-21
O=C(O)c1ccc2c(c1)N(Cc1ccccc1F)C(=O)c1ccccc1S2=O (configuration not stated),3,4712,/,/,1.9,0,-19
O=C(CCN1CCCCCC1)Nc1cccc(F)c1,8,2395,/,/,1.0,5,-28
CCN1C(=O)/C(=C2/C(=O)N3c4c(cc(OC(C)=O)cc42)C(C)=CC3(C)C)SC1=S,6,2370,5,0,12,4,-18
Cc1cc(C)nc(NS(=O)(=O)c2ccc(N/C=C/C(=O)c3ccc(Cl)cc3)cc2)n1,/,2566,/,/,/,-1,-40
CCCN(CC(=O)Nc1ccccc1OC)C(=O)c1ccc2ncsc2c1,1,3294,2,2,-1.3,/,-9
Cc1ccccc1N1C(=O)C2CCCN2C1=S (configuration not stated),6,3567,2,6,4.0,/,-16
CCCn1c(N)c(C(=O)CN2CCc3ccccc3C2)c(=O)n(C)c1=O,6,4686,-1,5,1.8,5,-8
COc1ccccc1CNC(=O)C(C)NS(=O)(=O)c1ccccc1 (configuration not stated),-1,3534,25,-21,-17,-4,-14
CSc1ncc(CN2CCCC(C(=O)c3sccc3C)C2)cn1 (configuration not stated),10,3661,4,6,3.2,-1,-19
CCOC(=O)N1CCN(C(=O)c2ccc(CS(=O)(=O)c3ccccc3OC)o2)CC1,-7,20166*,1,18,0.2,-2,3
Cc1cc(C(=O)CSc2nnc(N)s2)c(C)n1CCc1ccc(F)cc1,9,8935,-12,10,1.6,-17,-22
CN(c1ccc(C(=O)NCc2cccnc2)cc1)S(=O)(=O)c1ccc(Cl)cc1,1,5856,-3,-2,0.1,5,-8
C=CCn1c(SCCC(=O)O)nnc1-c1cccs1,2,3647,/,/,3.7,-6,5
O=C(COc1ccccc1)Nc1ccc(CN2CCCCC2)cc1,3,4160,12,8,9.6,7,-18
Cc1cc(OC(=O)c2c(C)cc(OC(=O)c3c(C)cc(O)cc3O)cc2O)cc(O)c1C(=O)O,2,5628,/,/,1.4,4,-23
COc1ccc(C2/C(=C(/O)c3ccc(C)cc3)C(=O)C(=O)N2CCCN2CCOCC2)cc1 (configuration not stated),8,/,7,2,3.2,-6,-17
Cc1ccsc1/C=N/N1CCN(Cc2ccccc2)CC1,/,4752,/,/,/,3,-11
CC1CCCC(NC(=O)C2CCC(CNc3c(N4CCCCC4)c(=O)c3=O)CC2)C1C (configuration not stated),13,6026,-2,-3,1.3,11,-7
CC1(C)CC2(C)OCCN2C(=S)N1 (configuration not stated),0,3953&4499,6,13,1.2,0,-30
COc1cccc(C=NNC(=O)Cn2ccnc2C)c1,11,/,6,-1,2.8,/,/
O=C1NC(=O)N(c2ccc(Cl)cc2)C(=O)/C1=C\c1ccc(Sc2nc3ccccc3[nH]2)o1,1,2148,-7,-1,2.3,3,-20
O=C(CN1CCc2cc3c(cc2C1)OCCCO3)Nc1c(F)cccc1F,6,5539,2,7,-0.4,-7,-8
CCCc1c(O)c2ccccc2[nH]c1=O,-1,3446,6,6,3.8,2,-15
Cn1c(Cn2nnc3ccccc32)nnc1SCC(N)=O,9,13070,14,1,4.8,13,-34
CC1(C)NC(=O)N(c2ccc([N+](=O)[O-])c(C(F)(F)F)c2)C1=O,-10,5825,2,3,7.4,/,12
Cc1ccc(OCC(=O)NCCCNC(=O)c2cnccn2)cc1C,3,3884,-4,8,2.6,7,-5
Cc1ccc(S(=O)(=O)C2(C(=O)NC3CCCCC3)CC2)cc1,2,5439,4,5,2.3,5,0
CCN(c1ccc(OCC(=O)OCC(=O)c2c(N)n(C)c(=O)n(C)c2=O)cc1)S(=O)(=O)c1ccccc1,5,4237,8,4,0.2,3,-10
CCc1ccc(NC(=O)Cn2nnc(C(=O)NCc3ccco3)c2N)cc1,4,6236,15,9,3.0,-6,-16
CCCc1cc(-c2n[nH]c(C(=O)OCC)c2-c2cscn2)c(O)cc1O,9,10306,7,12,12,0,-37
COc1cc(/C=C/C(=O)OCC(=O)Nc2ccc(S(N)(=O)=O)cc2)ccc1O,-12,4979,14,2,10.0,1,-16
COc1cc(/C=N/NC(=O)Cn2cnc3c2c(=O)n(C)c(=O)n3C)ccc1O,/,4599,/,/,/,5,-30
Cc1ccc(NC(=O)COC(=O)c2cc(=O)c3cc(F)ccc3o2)cc1,4,6374,-9,5,4.4,/,-32
CC(=O)NC(CCS(C)(=O)=O)C(=O)Nc1cc(C)ccc1C (configuration not stated),-3,4446,-4,9,-2.8,3,-16
N#Cc1ccccc1NC(=O)c1ccccc1OCC(=O)Nc1ccc2c(c1)oc1ccccc12,-1,11270,8,2,-6.1,13,-26
CCCc1cc(O)c2c(C)cc(=O)oc2c1,-26,10515,11,8,-7.8,20,-5
COCCn1c(SCC(=O)c2ccc(Cl)cc2)nnc1C(C)C,1,4987,/,/,-2.8,0,-77
CCC(CC)c1nnc(NC(=O)c2ccc([N+](=O)[O-])cc2)s1,7,9980,9,-1,0.8,-13,-35
CC1CCN(Cc2cc(=O)oc3ccc(C(C)C)cc23)CC1,4,3786,-1,-4,2.6,0,-24
Cc1noc(-c2ccc(C(F)(F)F)cc2)c1NC(=O)Nc1ccc(Cl)cc1,47,6079,9,1,69,-9,/
CC(=O)C1C(=O)CC(c2ccc(Cl)cc2)CC1=O (configuration not stated),11,3662,3,2,2.8,-11,-5

# Some of the entries so far, field by field:
> Cc1ccc(C)c(N2CCN(C(=O)c3ccc(N4CCOCC4)c([N+](=O)[O-])c3)CC2)c1
  ugtP null kill: -3 | Bead autofluor: 3824 | Mtb hypoxia rep: -3 | Mtb hypoxia rep growth: -3 | RN4220 kill: 0.5 | BJeLR viability: -9 | PrP UTR inh: -18

> O=C1CCc2cc(S(=O)(=O)NCc3ccc(F)cc3)cc3c2N1CCC3
  ugtP null kill: 13 | Bead autofluor: 4144 | Mtb hypoxia rep: 7 | Mtb hypoxia rep growth: 6 | RN4220 kill: 11 | BJeLR viability: 4 | PrP UTR inh: -18
